StopGo reporter = High Throughput Screening for Foot and Mouth Disease Virus Antivirals. human cells with a luciferase reporter of 2A StopGo recoding; control for the full effect not named in the record. Potency, µM (titrated, usually from 57.9 µM), for the others: top-dose signal change, negative = less light. 410,000 tested, 1.2% active; active = well fitted falling curve with a large enough effect; inconclusive = small, poorly fitted or top-dose-only effect; inactive = no such curve, though single readings can be large or run the other way; tested in HEK293T cells; further: on the % scale 0 is the no-effect control and ±100 the full control effect; nearly all actives have a fitted effect of over 45% in size; luciferase light after 4 h
SARS PLP yeast = qHTS of Yeast-based Assay for SARS-CoV PLP | S. cerevisiae expressing SARS-CoV PLpro, growth rescue; control for the full effect not named in the record | Potency, µM (top dose mostly 32.9 µM), without a hit: top-dose activity, positive = growth rescue | 330,000 tested, 0.19% active | AID 485353, 2010; active means well fitted rising curve with a large enough effect; inconclusive means small, poorly fitted or top-dose-only effect; inactive means no such curve, though single readings can be large or run the other way; further: 0% is about no effect; nearly all actives have a fitted effect of over 55% in size; growth read by luminescence after 48 h
LASV entry inh = qHTS for Inhibitors of binding or entry into cells for Lassa Virus. 300,000 tested, 1.2% active. AID 540256, 2011. Potency, µM (doses to about 37.9 µM), without a hit: top-dose activity change, negative = inhibition, hits mostly inhibitors. Lassa virus pseudotype entry inhibition, cell reporter; control for the full effect not named in the record; active means well fitted inhibition curve with a large enough effect; inconclusive means small, poorly fitted or top-dose-only effect, or effect the other way; inactive means flat fitted curve, though single readings scatter; tested in HEK293 cells; further: on the % scale 0 is the no-effect control and ±100 the full control effect; nearly all actives have a fitted effect of over 50% in size; luciferase read-out
Cruzain inh noDet = qHTS Assay for Promiscuous and Specific Inhibitors of Cruzain (without detergent); Cruzipain (Trypanosoma cruzi), P25779; purified cruzain, Z-FR-AMC fluorescence, no detergent; Potency, µM, for inactives: max response, negative = inhibition, actives largely listed as inhibitors; 200,000 tested, 2.3% active;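 further: plate controls were enzyme without inhibitor for no effect and buffer without enzyme for full effect; nearly all actives have a fitted effect of over 40% in size; top concentration of the series not given in the record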
Target sequence (P25779 123-467 limits assumed): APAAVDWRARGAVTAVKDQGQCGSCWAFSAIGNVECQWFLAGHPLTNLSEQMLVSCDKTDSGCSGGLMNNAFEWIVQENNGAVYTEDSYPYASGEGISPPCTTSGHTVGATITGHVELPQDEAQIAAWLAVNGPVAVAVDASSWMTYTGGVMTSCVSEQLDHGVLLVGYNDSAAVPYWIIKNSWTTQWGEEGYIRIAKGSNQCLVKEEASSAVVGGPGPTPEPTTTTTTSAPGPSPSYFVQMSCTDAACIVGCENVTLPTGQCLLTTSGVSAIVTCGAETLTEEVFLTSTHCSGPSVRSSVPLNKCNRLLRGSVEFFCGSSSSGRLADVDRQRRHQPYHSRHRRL
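Detergent-free condition (0.00005% Triton X-100) in acetate buffer pH 5.5 with DTT. 1.5 nM enzyme and compound were pre-mixed 15 min, then 2 uM Z-FR-AMC substrate added; reaction progress from fluorescence change between first and third reads (60 s).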
Marburg entry inh = qHTS for inhibitors of binding or entry into cells for Marburg Virus; 300,000 tested, 1.8% active; Potency, µM (series often up to 37.8 µM), without a hit: top-dose activity change, negative = inhibition, hits mostly inhibitors; Marburg virus pseudotyped entry inhibition, cell reporter; control for the full effect not named in the record; about a third of the inactives were read at about 46 µM; AID 540276, 2011; active = well fitted inhibition curve with a large enough effect; inconclusive = small, poorly fitted or top-dose-only effect, or effect the other way; inactive = flat fitted curve, though single readings scatter; tested in HEK293 cells; about a fifth of its hits are not listed in these tables; further: on the % scale 0 is the no-effect control and ±100 the full control effect; luciferase read-out
RE007 growth inh = qHTS Assay for Inhibitors of the HIV-1 protein Vpr | Potency, µM (series often up to 92.2 µM), for inactives: top-dose activity change, negative = less growth | AID 651644, 2012 | S. pombe RE007 Vpr strain, BacTiter-Glo ATP luminescence, 24 h; control for the full effect not named in the record | 360,000 tested, 0.21% active; active = well fitted falling curve with a large enough effect; inconclusive = small, poorly fitted or top-dose-only effect; inactive = no such curve, though single readings can be large or run the other way;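 further: on the % scale 0 is the no-effect control and ±100 the full control effect; nearly all actives have a fitted effect of over 50% in size; the assay follows cell death caused by Vpr and the record does not say whether a fall means rescue or toxicity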
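Fission yeast strain RE007, carrying one chromosomally integrated HIV-1 vpr copy, was seeded at OD 0.01 in PMG+AL medium with 23 nL pinned compound. After 24 h at 30 °C and 99% humidity, viability was read by BacTiter-Glo luminescence.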
Cruzain inh Det = qHTS Assay for Promiscuous and Specific Inhibitors of Cruzain (with detergent) | Cruzipain (Trypanosoma cruzi), P25779 | purified cruzain, Z-FR-AMC fluorescence, 0.01% Triton | Potency, µM, for inactives: max response, negative = inhibition, usual class: inhibitors | 200,000 tested, 0.43% active | AID 1478, 2009;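 further: plate controls were neutral wells for no effect and buffer without enzyme for full effect; nearly all actives have a fitted effect of over 40% in size; top concentration of the series not given in the record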
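15 min RT preincubation of 1.5 nM cruzain with compound, then 2 uM Z-FR-AMC added; kinetic AMC fluorescence, 60 s delta. Triton X-100 0.01%, pH 5.5.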
NS1 inh = qHTS Assay for Inhibitors of Influenza NS1 Protein Function; S. cerevisiae slowed by influenza A NS1, growth recovery by OD600; Potency, µM (top dose mostly 46.1 µM), for the others: at the highest dose activity, positive = more growth; 270,000 tested, 0.4% active; AID 2326, 2010; active means well fitted rising curve with a large enough effect; inconclusive means small, poorly fitted or top-dose-only effect; inactive means no such curve, though single readings can be large or run the other way; further: nearly all actives have a fitted effect of over 50% in size
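In this qHTS, NS1 from influenza A is expressed in budding yeast, where it slows growth. Cells are switched from glucose to 2% galactose medium (pH 6.0, -URA), treated with compound, and growth recovery is read at OD600.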
* marks the source's active call; other numbers are inactive results; ? = inconclusive; nt = not tested or not shown; & = joins results of further samples; [ ] = another dose, or the depositor's remark. Unless noted, the call rests on the fitted dose curve; in most records, active means well fitted curve in the direction sought with a large enough effect; inconclusive means small, poorly fitted or top-dose-only effect, or another doubt; inactive means no such curve, though single readings can be large; an effect the other way counts as inactive or inconclusive. Potency means the concentration at half of the fitted maximal effect. Not a hit list. About 4.7% of those tested had a hit in this group.

SMILES	StopGo reporter	SARS PLP yeast	LASV entry inh	Cruzain inh noDet	Marburg entry inh	RE007 growth inh	Cruzain inh Det	NS1 inh
CN(C)CCCNC(=O)c1cc2c3ccccc3n(C)c2s1	38%[activator]	3%	0%	-19%	0%	5%[3.69 µM]	-2.0%	4%
CC(C)CNC(=O)CSc1ccc(S(=O)(=O)N(C)C2CCCCC2)cn1	-26%	-4%	?	nt	-18%	-3%	nt	nt
C/C(CC(=O)NC(C)(C)C)=N\NC(=O)c1ccccc1N	56%[activator]	0%	nt	nt	?	-2%	nt	nt
COCCN(C(=O)COC(=O)CCn1c(C)csc1=O)c1c(N)n(Cc2ccccc2)c(=O)[nH]c1=O	-12%	2%	8%	nt	18%	17%	nt	nt
Cc1cccc(NC(=O)CSc2n[nH]c(-c3ccncc3)n2)c1C	5%	2%	19%[46.1 µM]	nt	-3%[46.1 µM]	-1%	nt	0%
O=C(O)C1C2C=CC3(CN(C4CCCC4)C(=O)C13)O2 (configuration not stated)	0%	2%	nt	-9%	nt	2%	2.2%	3%
CCc1nnc(NC(=O)c2cc(S(=O)(=O)N3CCN(c4ccccc4)CC3)ccc2Cl)s1	-14%	7%	-4%	?	0%	1%	3.4%	8%
Cc1cc(N)n2nc(C(F)(F)F)nc2n1	-1%	27%	6%[46.1 µM]	nt	7%[46.1 µM]	8%	nt	nt
O=C1CCN(CCc2ccccc2)CCN1[C@H](COc1ccccc1)c1ccccc1	?	0%	nt	nt	nt	1%	nt	-15%
COC(=O)C1CSC(C(=O)OC)N1C(=O)Nc1c(C)cccc1C (configuration not stated)	-8%	-8%	-1%	-10%	4%	11%	4.1%	13%
Cc1c(C(=O)NCc2ccc(F)cc2)oc2ccc(S(=O)(=O)N3CCOCC3)cc12	?	1%	nt	nt	?	1%	nt	4%
O=C(COC(=O)CNC(=O)c1ccco1)Nc1ccc(Cl)cn1	1%	5%	-19%	-15%	-1%	-3%	-2.1%	4%
O=C1CCCc2ccccc2N1Cc1ccccc1	-6%	1%	-25%	nt	2%	-5%	nt	1%
COc1ccc(C(=O)/C=C/c2cn(CC(O)CN(CC(C)C)CC(C)C)c3ccccc23)cc1OC (configuration not stated)	nt	nt	?	18%	?	nt	-4.7%	nt
Nc1nc(N)c(S(=O)(=O)c2ccccc2)c(Nc2ccccc2)n1	7%	nt	-19%[46.1 µM]	-11%	?	nt	-8.4%	nt
CN(C)S(=O)(=O)c1ccc(N2CCCC2)c(C(=O)Nc2cccc(F)c2)c1	-20%	-1%	-12%	nt	-1%	-9%	nt	18%
CC(C)N(C(=O)C(=O)c1cccn1-c1ccccc1C#N)C(C)C	15%	-4%	-10%	-2%	-14%[46.1 µM]	-4%	6.1%	-104%
CN(Cc1ccccc1)S(=O)(=O)c1ccc(Cl)c(C(=O)OCC(N)=O)c1	18%	0%	2%	nt	-1%[46.1 µM]	-4%	nt	-9%
COc1cc2c3nnc(-c4ccccc4)c-3cn(Cc3ccc(F)cc3)c2cc1OC	?	-1%	-15%	nt	?	1%	nt	1%
COc1ccc(CNC(=O)C2CCC(CNS(=O)(=O)c3ccc4c(c3)CCCC(=O)N4)CC2)cc1 (configuration not stated)	-15%	nt	22%[46.1 µM]	-3%	nt	nt	0.3%	nt
COCC(C)n1c(C)cc(C(=O)CSc2nnc(-c3ccco3)o2)c1C (configuration not stated)	-6%	-5%	6%[46.1 µM]	nt	-25%[46.1 µM]	-17%	nt	nt
Cc1cc(C)c(NC(=O)C(C)Sc2nnc(-c3ccco3)n2-c2ccccc2)c(C)c1 (configuration not stated)	nt	-3%	nt	1%	nt	nt	-0.9%	3%
O=C(NCCc1ccc(F)cc1)c1coc(=O)c(Br)c1	35µM*	-1%	nt	nt	nt	4%	nt	1%
Cc1ccc(S(=O)(=O)N(CC(O)CN2CCCCC2)c2cccc([N+](=O)[O-])c2)cc1 (configuration not stated)	2%	0%	1%	nt	?	7%	nt	-10%
CCC1Oc2ccccc2N(CC(=O)NCCCN2CCCCC2C)C1=O (configuration not stated)	nt	-1%	5%	-1%	?	6%	4.2%	1%
O=C(O)CCC(=O)Nc1ccc(C(=O)N2CCCCC2)cc1	nt	6%	-9%	5%	12%	-4%	7.7%	-13%
Cn1c(=O)c2c(nc(CN3CCN(Cc4ccccc4)CC3)n2CCN2CCOCC2)n(C)c1=O	-2%	1%	-2%	-11%	-3%	-16%	1.5%	-1%
CC(C)OCCCn1c(-c2ccc(Br)cc2)c[nH]c1=S	-18%	0%	?	nt	4%	9%	nt	nt
Cc1ccc(S(=O)(=O)Oc2cccc(/C=N/n3cnnc3)c2)cc1	?	-2%	?	6%	?	3%	-5.4%	12%
COc1ccc(S(=O)(=O)c2cc3cc(OC)ccc3oc2=O)cc1	1%	nt	20%[46.1 µM]	-4%	18%[46.1 µM]	nt	2.4%	nt
O=C(CSc1nnc(CNC(=O)c2ccccc2)o1)NCc1ccccc1Cl	-7%	-5%	-14%	nt	-5%	-5%	nt	-17%
CCc1ccccc1NC(=O)CN1CCN(CC(=O)Nc2ccc(-c3ccccc3)cc2)CC1	1%	7%	2%[46.1 µM]	nt	?	-9%	nt	-10%
CSc1nsc(SCC(=O)Nc2ccc(F)cc2F)n1	39%[activator]	-1%	20%	nt	?	-11%	nt	-4%
CC1(C)Cc2c(sc3c2c(=O)n(-c2ccc(Cl)cc2)c(=O)n3CC(N)=O)CO1	1%	0%	4%	nt	-1%	4%	nt	6%
CCc1ccccc1NC(=O)CSc1nnc(CCNC(=O)OC(C)(C)C)o1	-10%	1%	4%[46.1 µM]	nt	?	5%	nt	-1%
O=C(NN1CC(C(=O)OCc2ccc(Cl)cc2Cl)CC1=O)c1ccccc1 (configuration not stated)	-5%	1%	nt	nt	nt	-1%	nt	-56%
Cc1cc(OCC(=O)NCCc2ccc(S(N)(=O)=O)cc2)c2c(C)cc(=O)oc2c1	-7%	19%	nt	nt	nt	-7%	nt	2%
O=C(c1ccc(Nc2nc3ccccc3n3nnnc23)cc1)N1CCN(c2ccc(F)cc2)CC1	-8%	nt	-11%[46.1 µM]	-7%	29%[46.1 µM]	nt	-3.9%	nt
COCCCNC(=O)CCc1nc(-c2ccccc2)no1	-5%	0%	?	?	0%	-4%	-1.0%	-1%
COc1ccc(CCNC(=O)c2ccc(OC)c(OC)c2)cc1OC	-11%	7%	21%[46.1 µM]	nt	13%[46.1 µM]	-14%	nt	8%
CN1CCN(Cc2nc(Cc3cccc(F)c3)no2)CC1c1ccccc1 (configuration not stated)	-4%	-1%	-6%	nt	25%[46.1 µM]	11%	nt	6%
CCOc1ccc(NC(=O)CN(C)C(=O)CCCc2nc3ccccc3c(=O)[nH]2)cc1OCC	-13%	nt	5%	nt	?	5%	nt	nt
COC(=O)/C(=C/c1cn(C(C)=O)c2ccccc12)[N+](=O)[O-]	-28%	6%	0%	nt	21%[14.2 µM]	-7%	nt	-1%
Cc1ccn2c(=O)nc(SCC(=O)N3CCN(c4ccccc4)CC3)nc2c1	-20%	6%	1%[46.1 µM]	nt	22%	-12%	nt	nt
O=C(COc1ccccc1)Nn1cnc2ccccc21	nt	-2%	13%	0%	10%	-1%	1.1%	1%
Cc1sc2ncnc(Sc3ccccc3C(=O)Nc3ccc(Br)cc3)c2c1C	9%	-39%	-19%	13µM*	-18%	42%	-3.8%	?
NC(=O)c1ccccc1NC(=O)Nc1cccc(Cl)c1	56%[activator]	20%	?	-1%	5%	-13%	-1.1%	5%
N#Cc1c(N)nc(SCc2ccccc2)c(C#N)c1-c1ccco1	nt	3%	-25%	?	?	7%	-17%	-41%
CC1CCN(C(=O)Oc2ccccc2)CC1	20%	-3%	?	nt	29%[46.1 µM]	-17%	nt	-4%
COCc1cc(C)nc(N/N=C/c2ccc(Cl)c(Cl)c2)c1C#N	-10%	16%	1%	-5%	-7%	-1%	-2.0%	-5%

Next section:
SMILES	StopGo reporter	SARS PLP yeast	LASV entry inh	Cruzain inh noDet	Marburg entry inh	RE007 growth inh	Cruzain inh Det	NS1 inh
Cc1ccccc1Oc1ccc(-c2nc(N)nc(N)n2)cc1	?	-49%	-7%	3%	-13%	-10%	-5.8%	-224%
O=C(O)c1ccc(NC(=O)c2ccccc2NC(=O)c2ccccc2Br)cc1	-5%	0%	8%	nt	5%	1%	nt	28%
O=C1NCN(c2ccccc2)C12CCN(C[C@H]1COc3ccccc3O1)CC2	-16%	nt	nt	6%	-18%&-18%	nt	3.6%	nt
COc1ccc(NC(=O)C(CCS(C)(=O)=O)NC(C)=O)cc1 (configuration not stated)	-5%	5%	-2%	-1%	?	4%	2.6%	-1%
CC1CCCN(C(=O)c2cc3c(-c4ccc(Cl)cc4)nn(C)c3s2)C1 (configuration not stated)	?	7%	nt	6%	nt	-5%	-4.5%	-22%
O=C(Nc1ccnn1C1CCN(C(=O)c2cc(Cl)ccc2F)CC1)C1CCOC1 (configuration not stated)	1%	0%	nt	nt	nt	7%	nt	-4%
O=C(OCC(=O)N1CCN(C(=O)c2ccco2)CC1)c1sc2ccccc2c1Cl	nt	-1%	?	?	0%&12%	11%	-9.0%	-21%
CC(C)CCN1CCN(Cc2cn[nH]c2C2CCCCC2)CC1CCO (configuration not stated)	-17%	0%	10%	nt	?	-14%	nt	3%
COc1ccc(CN2CCOCCOCCOCCOCC2)cc1	-11%	0%	24%[46.1 µM]	nt	-1%[46.1 µM]	-18%	nt	8%
CNC(=O)COC(=O)/C=C/c1ccco1	-1%	-7%	nt	nt	nt	-23%	nt	3%
Cc1cccc(NC(=O)C2CCCN(S(=O)(=O)c3ccc4c(c3)oc(=O)n4C)C2)c1 (configuration not stated)	23%&-20%	0%	7%	9%	?	2%	-2.2%	2%
Cc1cc(NC(=O)CSc2cn(CCNC(=O)c3ccc(F)cc3)c3ccccc23)no1	?	-2%	0%	7%	?	-14%	-5.3%	-6%
Cc1cc(Cl)ccc1OCC(=O)Nc1c(C(=O)c2ccccc2)oc2ccccc12	-11%	nt	2%[46.1 µM]	-3%	-2%[46.1 µM]	nt	-0.6%	nt

Source: PubChem BioAssay (National Center for Advancing Translational Sciences (NCATS))
